Vif A3G = inhibitors of Vif binding to APOBEC3G peptide, primary screen, biochemical, TR-FRET, GST-Vif 1-94, biotin-A3G peptide, dose response retest (AID 1117319). TR-FRET GST-Vif / biotin-A3G peptide binding; higher % means a stronger effect; test concentration not given here; strong numbers were not always called active. inhibition, %; hits with a dose series show IC50 in µM. 260,000 compounds, 0.57% hits;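 active = above the screen mean plus three standard deviations and confirmed in dose response; inconclusive = results disagree or hit not tested in dose response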;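 note: Vif residues 1-94 fused to GST binding biotinylated APOBEC3G peptide 110-148; 0% = full assay without inhibitor and 100% = GST in place of GST-Vif; retest series ran down from 100 µM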
LANA-H2B inh = blockers of LANA interaction with H2A/H2B – biochemical, FP readout, HTS, primary screen; inhibition, % (no concentration beside the values); 320,000 compounds, 0.6% hits; cell-free LANA-H2A/H2B peptide, fluorescence polarization; Protein LANA1 (Human herpesvirus 8 type P (isolate GK18)), Q9QR71; in the data active = inhibition mostly above about 10%, no sharp cut-off; inactive = mostly below about 6.7%;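 note: stock transfer was 7.5 nL into about 10 µL; 0% = median of vehicle wells and 100% = median of positive control wells; one replicate is shown; the record names a cut of 25% in any replicate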
Beta apoptosis = inhibitors of cytokine-induced beta cell apoptosis, primary screen, luminescence; INS-1E cytokine-induced death, ATP luminescence, 48 h; percent of positive-control rescue, neutral wells zero; protection from apoptosis, % (test concentration not listed); 300,000 compounds, 0.8% hits;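 active = all replicates at 75% or more, or half of them and the mean; inconclusive = half reach 75% but not the mean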;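 note: 0% = cytokine-treated negative control wells and 100% = positive control rescue; higher means more ATP so stronger rescue from cytokine killing; wells of about 40 µL received 100 nL stock; the first replicate is given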
RanGTP-Impb inh = inhibitors of RanGTP-importin-beta interaction, primary screen, biochemical, FRET, CFP-Ran, YFP-importin-beta, homogeneous; inhibition, % (test concentration not listed); 300,000 compounds, 1.1% hits; Ran GTPase (GTP-bound) - importin-beta complex; cell-free CFP-Ran/YFP-importin-beta FRET ratio;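 active = most replicates above 15%; inconclusive = exactly half above 15%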;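 note: 0% = DMSO wells and 100% = Ran loaded with GDP instead of GTP; wells of about 40 µL received 100 nL stock; the first replicate is given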
T cruzi repl = inhibitors of intracellular T. cruzi growth, primary screen, luminescence, NIH3T3 host cells; T. cruzi beta-gal in NIH3T3, 90 h; inhibition, % (no concentration beside the values); 300,000 compounds, 1.4% hits; AID 1885, 2009;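 active = mean inhibition across valid replicates above about 55%, limit read from the data; inconclusive = mean below that limit but half or more replicates reach it; inactive = mean below it, under half of replicates reach it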;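 note: signal also drops with host cell toxicity which is not excluded here; 0% = plate median of DMSO wells and 100% = zero luminescence signal; higher percent means less beta-gal luminescence so fewer parasites; stock transfer was 50 nL into about 50 µL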
Calb FLC = C. albicans growth inhibition with fluconazole, primary screen, CaCi-2 strain, Alamar Blue fluorescence; C. albicans CaCi-2 (fluconazole-resistant clinical isolate) + fluconazole, 48 h; AID 1979, 2009; growth inhibition, % (no concentration beside the values); 300,000 compounds, 0.57% hits;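 active = most replicates above 75%; inconclusive = exactly half above 75%; inactive = most below 75%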;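 note: all wells also contain fluconazole at 8 µg/ml as a sub-toxic cotreatment; 0% = median of DMSO wells and 100% = median of geldanamycin control wells; wells of about 8 µL received 7.5 nL stock; the first replicate is given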
MLL AF4-AF9 inh = inhibitors of AF4 peptide binding to AF9, primary screen, biochemical, AlphaScreen, biotin-AF4 peptide, FLAG-AF9, single point. Protein AF-9 (Homo sapiens), P42568. inhibition, % at 10 µM. 350,000 compounds, 0.47% hits. AID 651704, 2012;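 active = every replicate reaching a set inhibition limit, whatever the replicate mean, cut at about 25% in these data; inconclusive = mean inhibition reaches that limit but some replicates miss it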;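 note: 0% = plate neutral control median and 100% = total signal loss; the record names both 10 and 1 µM as test concentration; the first replicate is given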
Target sequence (P42568 whole entry, looked up): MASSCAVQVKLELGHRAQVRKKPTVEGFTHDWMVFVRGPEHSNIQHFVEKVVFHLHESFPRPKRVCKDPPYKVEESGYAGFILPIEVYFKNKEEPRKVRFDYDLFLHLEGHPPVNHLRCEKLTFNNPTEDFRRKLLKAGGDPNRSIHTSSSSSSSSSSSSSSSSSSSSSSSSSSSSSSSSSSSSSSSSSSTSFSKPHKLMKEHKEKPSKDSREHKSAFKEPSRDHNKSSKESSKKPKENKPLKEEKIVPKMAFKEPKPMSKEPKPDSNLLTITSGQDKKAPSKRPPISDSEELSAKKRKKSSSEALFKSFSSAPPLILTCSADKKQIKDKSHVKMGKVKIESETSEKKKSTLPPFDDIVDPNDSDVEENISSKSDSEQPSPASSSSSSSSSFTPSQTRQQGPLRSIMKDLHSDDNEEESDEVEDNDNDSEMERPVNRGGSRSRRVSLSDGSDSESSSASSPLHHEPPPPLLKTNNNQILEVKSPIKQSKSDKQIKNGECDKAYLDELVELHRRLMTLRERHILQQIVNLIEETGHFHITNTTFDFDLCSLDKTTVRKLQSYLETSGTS
A1 inh = caspase 3/7 activation in MEF A1-2A-BIM cells, primary screen, A1 inhibitor project, cell-based, luminescence, HTS. 330,000 compounds, 0.066% hits. caspase activation, % (test concentration not listed). Caspase-Glo 3/7 luminescence, 3 h; percent of clofoctol response, vehicle zero;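 active = over half of replicate activation scores above 10%, or exactly half above 10 with the replicate mean above 10; inconclusive = replicate mean below 10 yet half the replicates above 10; inactive = over half of replicates below 10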;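 note: wells of about 30 µL received 50 nL stock; many hits fall short of the cut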
* hit, by the source's call; ? = inconclusive; / = not tested or not shown; & = joins results of further samples. A portion of the library; rates above refer to the full screens.

canonical_smiles	Vif A3G	LANA-H2B inh	Beta apoptosis	RanGTP-Impb inh	T cruzi repl	Calb FLC	MLL AF4-AF9 inh	A1 inh
CCOC(=O)C(NC(=O)CC)(Nc1ccc(C(O)(C(=O)OCC)C(F)(F)F)cc1C)C(F)(F)F (centres undefined)	?	4.1	-11.5	-2.5	-6.1	-20.5	/	-0.5
O=C(C[N+]12CCN(CC1)CC2)NCCc1ccc(Cl)cc1Cl	14.8%	-2.9	/	6.6	-39.9	19.3	-7.5	-0.9
C[N+]12CCC(CC1)C(C(O)(c1ccccc1)c1cccs1)C2 (centres undefined)	0.9%	2.3	-1.5	4.3	11.2	7.6	/	0.6
COc1ccc(CCNC(C)CCc2ccc(OC)cc2)cc1 (centres undefined)	-3.6%	-2.0	-7.0	0.9	43.7	-17.5	3.0	0.8
CCCCn1c(NS(=O)(=O)c2ccc(C)cc2)c(C(=O)OCC)c2nc3ccccc3nc21	-5.8%	1.6	-5.1	75.3*	-4.8	-2.5	1.8	-0.1
Cc1sc2ncn(CC(=O)NCC(=O)N3CCC4(CC3)OCCO4)c(=O)c2c1C	67.7%	-2.3	-3.4	2.5	-7.0	-6.2	/	0.0
O/N=C1/C(=C\c2ccccc2)N2CCC1CC2	2.9%	1.5	-7.8	-1.2	-8.4	?	/	0.5
Cc1cc(OCC(=O)NCC(O)c2ccccc2)c2c3c(c(=O)oc2c1)CCCC3 (centres undefined)	-6.9%	-0.7	15.9	-0.6	5.1	-4.0	-2.4	-2.2
O=P(CN1CCN(c2ccccc2)CC1)(N1CCCCC1)N1CCCCC1	-2.5%	-0.5	-1.8	0.6	1.4	1.6	/	0.9
Cc1cc(OC(=O)CCCNC(=O)OC(C)(C)C)c2c3c(c(=O)oc2c1)CCC3	20.7%	-2.6	29.1	-2.4	0.4	-18.6	/	0.8
Cc1ccc(-n2c(O)c(C=Nc3ccc(S(=O)(=O)N(C)C)cc3)c(=O)[nH]c2=O)cc1	6.0%	0.8	-11.9	-1.0	-11.9	1.9	/	-0.2
CC(C)NCC(O)c1ccc(C2CCCC2)cc1 (centres undefined)	-3.9%	4.3	-2.2	2.3	4.4	-6.8	/	-0.5

Record cards (already shown).
Entry for `CCCCn1c(NS(=O)(=O)c2ccc(C)cc2)c(C(=O)OCC)c2nc3ccccc3nc21` → Vif A3G = -5.8%; LANA-H2B inh = 1.6; Beta apoptosis = -5.1; RanGTP-Impb inh = 75.3*; T cruzi repl = -4.8; Calb FLC = -2.5; MLL AF4-AF9 inh = 1.8; A1 inh = -0.1
Entry for `CCOC(=O)C(NC(=O)CC)(Nc1ccc(C(O)(C(=O)OCC)C(F)(F)F)cc1C)C(F)(F)F` (centres undefined) → Vif A3G = ?; LANA-H2B inh = 4.1; Beta apoptosis = -11.5; RanGTP-Impb inh = -2.5; T cruzi repl = -6.1; Calb FLC = -20.5; MLL AF4-AF9 inh = /; A1 inh = -0.5

(list continues)
canonical_smiles	Vif A3G	LANA-H2B inh	Beta apoptosis	RanGTP-Impb inh	T cruzi repl	Calb FLC	MLL AF4-AF9 inh	A1 inh
O=C1NC(=O)N(c2ccccc2)C(=O)/C1=C\c1ccccc1[N+](=O)[O-]	8.2%	0.1	-3.5	3.0	2.0	9.0	-3.0	-1.1
CCC(=O)c1ccc(OCC(=O)N2CCN(CC(=O)Nc3ccc(C)cc3)CC2)cc1	/	-1.0	4.3	/	/	/	0.9	0.0
CCOc1ccc(N=Cc2c(O)n(-c3cc(C)cc(C)c3)c(=O)[nH]c2=O)cc1	/	3.1	2.3	1.4	4.2	-4.4	-1.1	0.2
CN1C(=O)COc2c(C(=O)NC3CN4CCC3CC4)cc(Cl)cc21 (centres undefined)	-11.1%	4.8	7.5	-1.2	-17.0	/	/	-0.7
C[C@]12CCC3C(CC[C@H]4C[C@@H](O)CC[C@]34C)C1CC[C@@H]2N (some centres undefined)	-0.8%	-15.3	-4.6	/	/	/	-3.3	0.6
COc1cc(CN2CCN(C(=O)Cc3ccccc3)CC2)cc(OC)c1OC	/	2.4	-4.7	1.2	-4.4	32.1	-5.9	0.2
O=c1[nH]c2ccccc2c(=O)n1-c1ccc(Cl)cc1Cl	-4.3%	-0.5	0.0	-0.7	-14.4	13.3	-1.2	0.7
CCCCC(=O)N/N=C/c1c(O)n(CCC2=CCCCC2)c(=O)[nH]c1=O	19.8%	1.6	21.0	0.0	-8.9	5.0	-1.3	-0.7
CCOC(=O)[C@@]1(C#N)[C@@H]2C=CC(C(N)=O)=CN2[C@@H](C(N)=O)[C@@H]1c1cccc(Cl)c1	2.0%	3.2	-6.9	-1.8	-4.4	-14.0	/	0.5
CN1CCN(c2ccc([N+](=O)[O-])cc2Cl)CC1	-1.4%	-1.3	-5.7	0.3	35.7	2.7	-1.1	0.0
CCC(=O)Nc1ccccc1	/	7.6	/	1.4	-3.0	-2.0	2.1	0.3
Fc1ccc(NC2=NCCS2)cc1Cl	7.0%	-1.4	-3.6	1.0	14.7	-9.3	/	-0.3

Further results follow.
canonical_smiles	Vif A3G	LANA-H2B inh	Beta apoptosis	RanGTP-Impb inh	T cruzi repl	Calb FLC	MLL AF4-AF9 inh	A1 inh
Clc1cccc(Cl)c1CN1CCN(c2ccccc2)CC1	-4.9%	-3.5	-0.2	0.9	11.7	25.1	/	0.2
COC(=O)CC1(CC(=O)OC)C(=O)NC(=O)NC1=O	12.9%	0.0	-4.9	-3.3	-16.7	-1.2	/	0.8
Cc1n[nH]c(C)c1CCN	1.0%	-2.6	-2.8	3.4	-4.7	-4.8	/	0.5
CCOP(=O)(OCC)C(CC)N1CCOCC1 (centres undefined)	2.3%	-4.5	-1.7	?	0.5	1.1	/	0.7
COc1ccc(S(=O)(=O)Cc2ccc(C(=O)N3CCC4(CC3)OCCO4)o2)cc1	1.7%	-2.9	-6.5	4.4	-6.8	-3.2	/	-0.7
Cc1cc(O)c2c(C)c(CC(=O)N3C[C@H]4C[C@@H](C3)c3cccc(=O)n3C4)c(=O)oc2c1	/	-7.1	/	?	-16.5	-4.1	6.0	0.1
Cc1cccc(CN2CCCN(Cc3ccc(Cl)cc3)S2(=O)=O)c1	-5.2%	-0.4	3.2	8.9	3.1	5.2	1.4	0.0
CN1c2ccc([N+](=O)[O-])cc2CC2(C(=O)NC(=O)N(c3ccccc3)C2=O)C1c1ccccc1 (centres undefined)	/	4.5	13.3	-0.2	71.8*	-6.0	16.3	1.1
O=c1c2cc(Br)ccc2[nH]c(=S)n1-c1ccccc1	-12.4%	3.0	-0.8	3.3	-16.2	-2.5	-1.6	-0.7
O=C1NC(=O)C(=Cc2cc(Cl)ccc2OCc2ccc(C(=O)O)cc2)C(=O)N1	18.3%	1.4	5.6	1.3	-20.0	-11.4	-4.2	0.9
Cc1cc(=O)oc2cc(OCC(=O)N3CCC(C(=O)O)(c4ccccc4)CC3)ccc12	/	4.5	-5.9	0.5	-7.7	-4.7	-1.6	0.4
COC(=O)C1=C(c2ccc(OC)c(OC)c2)C[C@@H]2CC[C@H]1N2C(=O)NCc1cc(C)oc1C(F)(F)F	/	2.9	-8.6	/	/	/	4.6	-0.6

The closing five records of the section above come first, to join the parts:
canonical_smiles	Vif A3G	LANA-H2B inh	Beta apoptosis	RanGTP-Impb inh	T cruzi repl	Calb FLC	MLL AF4-AF9 inh	A1 inh
CN1c2ccc([N+](=O)[O-])cc2CC2(C(=O)NC(=O)N(c3ccccc3)C2=O)C1c1ccccc1 (centres undefined)	/	4.5	13.3	-0.2	71.8*	-6.0	16.3	1.1
O=c1c2cc(Br)ccc2[nH]c(=S)n1-c1ccccc1	-12.4%	3.0	-0.8	3.3	-16.2	-2.5	-1.6	-0.7
O=C1NC(=O)C(=Cc2cc(Cl)ccc2OCc2ccc(C(=O)O)cc2)C(=O)N1	18.3%	1.4	5.6	1.3	-20.0	-11.4	-4.2	0.9
Cc1cc(=O)oc2cc(OCC(=O)N3CCC(C(=O)O)(c4ccccc4)CC3)ccc12	/	4.5	-5.9	0.5	-7.7	-4.7	-1.6	0.4
COC(=O)C1=C(c2ccc(OC)c(OC)c2)C[C@@H]2CC[C@H]1N2C(=O)NCc1cc(C)oc1C(F)(F)F	/	2.9	-8.6	/	/	/	4.6	-0.6
CC(=O)c1cccc(OCC(=O)N2CCN(CC(=O)Nc3cccc(F)c3)CC2)c1	6.7%	-0.2	-6.3	/	/	/	-0.4	0.1
CN(C)C=C1C(=O)N(C2CCCCC2)C(=O)N(C2CCCCC2)C1=O	7.5%&-2.8%	-0.1	0.3	-1.5	-2.7	8.7	/	0.8
C1CCC2S[C@H]3CCCCC3NC2C1 (some centres undefined)	2.0%	3.0	/	?	-27.1	-1.9	2.7	0.6
Cc1cccc(NC(=O)N2CC3CC(C2)c2cccc(=O)n2C3)c1 (centres undefined)	-2.9%	1.3	-6.6	3.8	-1.2	-3.2	-2.3	-0.5
CC(C(=O)N1CCC2(CC1)OCCO2)C1Sc2ccccc2NC1=O (centres undefined)	-5.8%	-2.1	2.2	2.0	-4.7	-5.8	/	-0.2
Cc1cc(N2C(=O)C3CCCN3C2c2sccc2C)no1 (centres undefined)	-9.1%	3.9	-0.4	?	-0.8	-12.1	/	-0.6
CC(=O)O[C@H]1C(=O)[C@@]2(C)C([C@H](OC(=O)c3ccccc3)[C@]3(O)C[C@H](O)C(C)=C1C3(C)C)[C@]1(OC(C)=O)CO[C@@H]1C[C@H]2O (some centres undefined)	/	0.9	/	3.0	13.3	-1.0	-2.9	0.3
Fc1ccc(Cn2nnnc2CN2CCC(n3nnc4cc(C(F)(F)F)ccc43)CC2)cc1	?	-1.8	10.3	0.3	6.6	5.3	-7.2	-1.3
COc1ccc(-n2c(O)c(C(C)=NCCc3c[nH]c4ccccc34)c(=O)[nH]c2=O)cc1	31.1%	1.1	-1.5	-3.1	0.4	-4.7	/	-1.7
O=C(Cc1ccccc1)NC(Cc1ccc(Cl)cc1)C(=O)O (centres undefined)	6.1%	0.4	-10.9	-0.5	-3.3	-3.9	-5.4	0.7
CCN1C(=O)C(=C2C=C(C)N(Cc3ccco3)C(C)=C2)C(=O)N(CC)C1=S	-55.9%	6.3	0.1	9.6	26.4	41.2	/	-0.3
CN(C)/C=C1/C(=O)NC(=O)N(CCNc2ncc(C(F)(F)F)cc2Cl)C1=O	-3.9%	-1.4	0.7	1.4	-43.4	5.1	-2.2	-0.4
N[C@@H](CCl)C(=O)O	/	3.4	1.9	-2.3	-10.9	/	2.9	1.5
N#CCCn1cc(C(=O)NCc2ccccc2)c(-c2ccccc2)n1	-9.9%	-1.1	-3.4	4.8	13.7	35.6	-0.7	0.3
